NOMO-1 viab = NOMO-1 AML cell viability reduction, primary screen, STK33 inhibitor project, CellTiter-Glo luminescence; 37,000 tested, 7.5% active; NOMO-1 AML viability, 72 h; AID 2330, 2010; inhibition, % (no concentration beside the values);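 active means most replicates above 80%; inconclusive means exactly half above 80%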;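 further: wells of about 30 µL received 25 nL stock; 0% = median of vehicle wells and 100% = reference inhibitor level; the first replicate is given; inactives centre near 10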
An asterisk follows results filed as active; ? = inconclusive.

SMILES | NOMO-1 viab
O=C(COc1ccc(Cl)cc1CO)Nc1ccc(F)cc1 | 22
COc1ccc(NC(=O)N(C)C[C@@H]2Oc3c(NC(=O)Nc4ccc(F)cc4)cccc3C(=O)N([C@@H](C)CO)C[C@H]2C)cc1 | -5
O=c1c2cc(-c3ccccc3)sc2ncn1/N=C/c1cccs1 | 57
CCn1nccc1C(=O)Nc1nc2ccccc2n1CCN1CCCCC1 | 56
C[C@H](CO)N1C[C@H](C)[C@H](CN(C)Cc2ccc(Oc3ccccc3)cc2)Oc2c(NC(=O)c3ccncc3)cccc2C1=O | 13
COc1ccc(NC(=O)N(C)C[C@H]2Oc3c(NS(=O)(=O)c4c(C)noc4C)cccc3C(=O)N([C@H](C)CO)C[C@H]2C)cc1 | 0
C[C@@H]1CN([C@@H](C)CO)C(=O)c2cc(NC(=O)Cn3cnnn3)ccc2O[C@H]1CN(C)C(=O)Nc1ccc2c(c1)OCO2 | 28
COc1ccc(NC(=O)CSc2nc3ccccc3c(=O)n2-c2ccc(C)cc2)c(OC)c1 | -12
Cc1noc(C)c1NC(=O)Nc1ccc2c(c1)C(=O)N([C@@H](C)CO)C[C@H](C)[C@H](CN(C)Cc1ccc(C(=O)Nc3ccccc3N)cc1)O2 | -5
Cc1noc(C)c1S(=O)(=O)Nc1cccc2c1O[C@H](CN(C)S(=O)(=O)c1ccccc1)[C@H](C)CN([C@H](C)CO)C2=O | 31
CC(C)NC(=O)N(C)C[C@H]1Oc2ccc(NS(=O)(=O)c3ccccc3)cc2CC(=O)N([C@@H](C)CO)C[C@@H]1C | -12
c1ccc(-c2nc(SCC3COc4ccccc4O3)oc2-c2ccccc2)cc1 (stereo unspecified) | 9
CN(C)CCNc1nc2c(c(=O)n(C)c(=O)n2C)n1Cc1ccccc1F | 15
O=C(CSc1nnnn1-c1ccccc1)Nc1ccc(Oc2ccccc2)cc1 | -3
Cn1nnnc1SCC(=O)Nc1ccc(C#N)cc1 | 2
C[C@@H]1CN([C@@H](C)CO)C(=O)Cc2cc(NC(=O)C3CC3)ccc2O[C@@H]1CN(C)C(=O)Nc1cccc2ccccc12 | 4
COc1ccc(S(=O)(=O)N(C)C[C@@H]2Oc3ccc(NC(=O)CCC(F)(F)F)cc3C(=O)N([C@@H](C)CO)C[C@@H]2C)cc1 | -8
COC(=O)c1ccc(NC(=S)NC(=O)N2CCOCC2)cc1 | 7
C[C@@H]1CCCCO[C@@H](CN(C)C(=O)Nc2cccc3ccccc23)[C@@H](C)CN([C@H](C)CO)C(=O)c2cc(NC(=O)CCC(F)(F)F)ccc2O1 | 30
C[C@@H]1CN([C@@H](C)CO)C(=O)c2cccc(NC(=O)C3CCOCC3)c2O[C@@H]1CN(C)S(=O)(=O)c1cn(C)cn1 | -6
Cc1noc(C)c1NC(=O)Nc1cccc2c1O[C@H](CN(C)CC1CCCCC1)[C@H](C)CN([C@@H](C)CO)C2=O | 19
Cc1ccc(N(CC(=O)Nc2cc(Cl)ccc2C)S(C)(=O)=O)cc1C | 5
CC1=CC(c2ccccc2)=C(C#N)C(=S)C1CC(=O)c1cccs1 (stereo unspecified) | 26
Cc1ccccc1NC(=O)CC1NCCNC1=O (stereo unspecified) | 20
Cc1ccc(S(=O)(=O)Nc2cccc3c2O[C@H](CN(C)C(=O)NC(C)C)[C@@H](C)CN([C@@H](C)CO)C3=O)cc1 | -15

2 successive entries from above, for reference:
SMILES | NOMO-1 viab
O=C(COc1ccc(Cl)cc1CO)Nc1ccc(F)cc1 | 22
COc1ccc(NC(=O)N(C)C[C@@H]2Oc3c(NC(=O)Nc4ccc(F)cc4)cccc3C(=O)N([C@@H](C)CO)C[C@H]2C)cc1 | -5

Continued:
SMILES | NOMO-1 viab
O=C(c1ccccc1C(=O)N1CCCCC1)N1CCCCC1 | -3
CNC[C@H]1Oc2ccc(NS(C)(=O)=O)cc2CC(=O)N([C@H](C)CO)C[C@H]1C | 11
C[C@H]1CN([C@@H](C)CO)C(=O)Cc2cc(NS(=O)(=O)c3ccccc3)ccc2O[C@@H]1CN(C)S(C)(=O)=O | 1
COc1ccc(CN(C)C[C@@H]2Oc3ccc(NS(=O)(=O)c4ccc(Cl)cc4)cc3C(=O)N([C@H](C)CO)C[C@H]2C)cc1 | 17
O=C(CCN1CCCCC1)Nc1ccc(Cl)cc1 | -16
C[C@H](CO)N1C[C@H](C)[C@@H](CN(C)S(=O)(=O)c2ccc(F)cc2)Oc2ccc(NS(=O)(=O)c3cccs3)cc2C1=O | 18
C[C@@H]1CN([C@@H](C)CO)C(=O)c2cccc(NC(=O)Nc3ccc4c(c3)OCO4)c2O[C@@H]1CN(C)S(=O)(=O)c1cccs1 | 31
Cc1noc(C)c1NC(=O)Nc1ccc2c(c1)C(=O)N([C@@H](C)CO)C[C@H](C)[C@@H](CN(C)S(=O)(=O)c1cccs1)O2 | 27
COc1cc2c(cc1OC)-c1c(C#N)c(-c3ccc(C)cc3)c(C(=O)c3cccs3)n1CC2 | 27
O=C(CSc1n[nH]c(-c2ccc(Cl)cc2Cl)n1)Nc1cc(C(F)(F)F)ccc1Cl | 46
C[C@@H]1CCCCO[C@H](CN(C)Cc2ccccc2)[C@@H](C)CN([C@H](C)CO)C(=O)c2cc(NC(=O)Nc3ccc4c(c3)OCO4)ccc2O1 | 15
C[C@@H]1CCCCO[C@@H](CN(C)C(=O)Nc2ccc(C(F)(F)F)cc2)[C@@H](C)CN([C@H](C)CO)C(=O)c2cc(NC(=O)Nc3ccc(F)cc3)ccc2O1 | ?
Cc1noc(C)c1NC(=O)N(C)C[C@@H]1OCCCC[C@@H](C)Oc2ccc(NC(=O)CCCCCC(=O)Nc3ccccc3N)cc2C(=O)N([C@H](C)CO)C[C@@H]1C | 30
Cc1noc(C)c1S(=O)(=O)Nc1ccc2c(c1)C(=O)N([C@H](C)CO)C[C@@H](C)[C@@H](CN(C)S(=O)(=O)c1ccc(F)cc1)O2 | 14
CNC[C@H]1Oc2ccc(NS(=O)(=O)c3ccc(Cl)cc3)cc2CC(=O)N([C@@H](C)CO)C[C@H]1C | -11
Cc1ccc(S(=O)(=O)Nc2ccc3c(c2)C(=O)N([C@H](C)CO)C[C@H](C)[C@@H](CN(C)Cc2ccc(C(=O)O)cc2)O3)cc1 | 20
COc1ccc(NC(=O)Nc2ccc3c(c2)C(=O)N([C@H](C)CO)C[C@H](C)[C@H](CN(C)S(=O)(=O)c2ccc(Cl)cc2)OCCCC[C@@H](C)O3)cc1 | 33
COc1cccc(OCc2nc(-c3ccc(OC)c(OC)c3)no2)c1 | -5
C[C@H](CO)N1C[C@H](C)[C@H](CN(C)S(=O)(=O)c2ccccc2)Oc2ccc(NC(=O)c3ccncc3)cc2CC1=O | -2
COc1ccc(CN(C)C[C@@H]2Oc3ccc(NC(=O)Cc4ccccc4)cc3C(=O)N([C@@H](C)CO)C[C@H]2C)cc1 | 10
O=C(CSc1nnc(-c2ccncc2)o1)c1cc2ccccc2oc1=O | 2
Cc1noc(C)c1S(=O)(=O)Nc1ccc2c(c1)CC(=O)N([C@H](C)CO)C[C@@H](C)[C@@H](CN(C)Cc1ccc(Cl)c(Cl)c1)O2 | 51
COc1ccc2nc(SCC(=O)Nc3ccc(F)c(Cl)c3)[nH]c2c1 | 11
CC(C)NC(=O)Nc1ccc2c(c1)CC(=O)N([C@@H](C)CO)C[C@H](C)[C@H](CN(C)Cc1ccc(Oc3ccccc3)cc1)O2 | 4
C[C@@H]1CCCCO[C@@H](CN(C)C(=O)CCCN(C)C)[C@@H](C)CN([C@H](C)CO)C(=O)c2cc(NC(=O)CCC(F)(F)F)ccc2O1 | 7

Next section, overlapping the part above by 7 compounds.
SMILES | NOMO-1 viab
C[C@H](CO)N1C[C@H](C)[C@H](CN(C)S(=O)(=O)c2ccccc2)Oc2ccc(NC(=O)c3ccncc3)cc2CC1=O | -2
COc1ccc(CN(C)C[C@@H]2Oc3ccc(NC(=O)Cc4ccccc4)cc3C(=O)N([C@@H](C)CO)C[C@H]2C)cc1 | 10
O=C(CSc1nnc(-c2ccncc2)o1)c1cc2ccccc2oc1=O | 2
Cc1noc(C)c1S(=O)(=O)Nc1ccc2c(c1)CC(=O)N([C@H](C)CO)C[C@@H](C)[C@@H](CN(C)Cc1ccc(Cl)c(Cl)c1)O2 | 51
COc1ccc2nc(SCC(=O)Nc3ccc(F)c(Cl)c3)[nH]c2c1 | 11
CC(C)NC(=O)Nc1ccc2c(c1)CC(=O)N([C@@H](C)CO)C[C@H](C)[C@H](CN(C)Cc1ccc(Oc3ccccc3)cc1)O2 | 4
C[C@@H]1CCCCO[C@@H](CN(C)C(=O)CCCN(C)C)[C@@H](C)CN([C@H](C)CO)C(=O)c2cc(NC(=O)CCC(F)(F)F)ccc2O1 | 7
C[C@H](CO)N1C[C@H](C)[C@H](CN(C)Cc2ccc(C(F)(F)F)cc2)Oc2c(NC(=O)c3cnccn3)cccc2C1=O | 17
Nc1nc(SCC(=O)c2ccc(Cl)cc2Cl)n[nH]1 | 9
C[C@H](CO)N1C[C@H](C)[C@@H](CN(C)Cc2ccc(-c3ccccc3)cc2)Oc2c(NS(=O)(=O)c3cccs3)cccc2C1=O | 20
Cc1cc(C(=O)Nc2cccc3c2O[C@@H](CN(C)S(=O)(=O)c2cccs2)[C@@H](C)CN([C@@H](C)CO)C3=O)n(C)n1 | 16
C[C@H](CO)N1C[C@H](C)[C@H](CN(C)Cc2ccc(C(=O)O)cc2)Oc2ccc(NC(=O)CCC(F)(F)F)cc2CC1=O | 29
C[C@@H]1CCCCO[C@@H](CN(C)CC2CCCCC2)[C@@H](C)CN([C@H](C)CO)C(=O)c2cc(NC(=O)Nc3ccc(C(F)(F)F)cc3)ccc2O1 | 117*
Cc1ccc(S(=O)(=O)NC(C)(C)CSc2nncn2C)cc1 | -5
O=C(CC1NC(=O)NC1=O)Nc1cccc(C(F)(F)F)c1 (stereo unspecified) | 1
COc1ccc(S(=O)(=O)Nc2ccc3c(c2)CC(=O)N([C@H](C)CO)C[C@H](C)[C@H](CN(C)CC2CCCCC2)O3)cc1 | 48
Cc1noc(C)c1S(=O)(=O)Nc1cccc2c1O[C@@H](CN(C)CC1CC1)[C@@H](C)CN([C@H](C)CO)C2=O | 1
COc1c(O)cc2occ(-c3ccccc3O)c(=O)c2c1O | 8
COc1ccc(NC(=O)Nc2ccc3c(c2)C(=O)N([C@H](C)CO)C[C@@H](C)[C@@H](CN(C)Cc2ccc(C(=O)Nc4ccccc4N)cc2)O3)cc1 | ?
C[C@H]1CN([C@@H](C)CO)C(=O)c2cc(NC(=O)Nc3ccc(C(F)(F)F)cc3)ccc2O[C@@H]1CN(C)C(=O)Nc1ccc2c(c1)OCO2 | 24
N#Cc1ccc(NC(=O)CSc2ccc([N+](=O)[O-])cn2)cc1 | 20
O=C(/C=C/c1ccccc1)O[C@@H]1O[C@H](CO)[C@@H](O)[C@H](O)[C@H]1O | -3
CCc1cccc(NC(=O)CSc2c(C)n[nH]c2C)c1 | 10
C[C@@H]1CN([C@@H](C)CO)C(=O)c2cc(NC(=O)Nc3ccc(F)cc3)ccc2O[C@H]1CN(C)S(=O)(=O)c1ccccc1 | 34
Nc1nc(SCC(=O)Nc2cccc(C(F)(F)F)c2)n[nH]1 | -1
Cc1noc(C)c1NC(=O)N(C)C[C@H]1Oc2c(cccc2N(C)C)C(=O)N([C@@H](C)CO)C[C@H]1C | 2
Cc1ccc(S(=O)(=O)Nc2ccc3c(c2)C(=O)N([C@@H](C)CO)C[C@@H](C)[C@H](CN(C)Cc2ccc(Oc4ccccc4)cc2)O3)cc1 | 57
CCC(Sc1nnc(-c2ccc([N+](=O)[O-])cc2)n1C)C(=O)Nc1ccc(Br)cc1 (stereo unspecified) | 23
CC(C)NC(=O)N(C)C[C@H]1Oc2ccc(NS(C)(=O)=O)cc2C(=O)N([C@H](C)CO)C[C@H]1C | 1
Cc1ccc(S(=O)(=O)N(C)C[C@H]2Oc3ccc(NC(=O)Nc4ccc(C(F)(F)F)cc4)cc3C(=O)N([C@H](C)CO)C[C@@H]2C)cc1 | 126*
O=c1cc(-c2ccccc2)nc(SCc2nc3ccccc3c(=O)[nH]2)[nH]1 | 30
COc1ccc(S(=O)(=O)N(C)C[C@@H]2Oc3ccc(NC(=O)Nc4ccc(C(F)(F)F)cc4)cc3C(=O)N([C@H](C)CO)C[C@@H]2C)cc1 | 105*

Retrieved by compound from above (3):
SMILES | NOMO-1 viab
CCc1cccc(NC(=O)CSc2c(C)n[nH]c2C)c1 | 10
C[C@H]1CN([C@@H](C)CO)C(=O)c2cc(NC(=O)Nc3ccc(C(F)(F)F)cc3)ccc2O[C@@H]1CN(C)C(=O)Nc1ccc2c(c1)OCO2 | 24
Cc1ccc(S(=O)(=O)N(C)C[C@H]2Oc3ccc(NC(=O)Nc4ccc(C(F)(F)F)cc4)cc3C(=O)N([C@H](C)CO)C[C@@H]2C)cc1 | 126*

Next compounds follow.
SMILES | NOMO-1 viab
C=C(C)[C@H]1C[C@@]2(C)C(=CC1=O)CC[C@@H](O)[C@@H]2C | 24
Cc1ccc(-n2c(SCC(=O)Nc3ccc4c(c3)OCCO4)nnc2-c2ccco2)cc1 | -14
CC(Oc1ccc(Cl)cc1Cl)C(=O)Nc1cccc(Cl)c1N1CCOCC1 (stereo unspecified) | 25
C[C@@H]1CN([C@H](C)CO)C(=O)c2cc(NC(=O)CCCN(C)C)ccc2O[C@@H]1CN(C)Cc1ccc(C(=O)O)cc1 | -15
C[C@@H]1CCCCO[C@H](CN(C)S(=O)(=O)c2cccs2)[C@@H](C)CN([C@H](C)CO)C(=O)c2cc(NS(C)(=O)=O)ccc2O1 | 19
CC(C)(C)c1ccc(OCC(=O)NCc2ccccn2)c(Br)c1 | 44
COc1ccc(S(=O)(=O)Nc2ccc3c(c2)C(=O)N([C@H](C)CO)C[C@H](C)[C@H](CN(C)C)OCCCC[C@@H](C)O3)cc1 | 42
O=C(NCCO)c1cccc(Nc2nc(-c3ccccc3)c3cc(Cl)ccc3n2)c1 | 37
C[C@@H]1CN([C@H](C)CO)C(=O)Cc2cc(NC(=O)Nc3ccccc3)ccc2O[C@@H]1CN(C)Cc1ccc(C(=O)O)cc1 | 7
C[C@H](CO)N1C[C@H](C)[C@@H](CN(C)S(=O)(=O)c2cn(C)cn2)Oc2c(NS(=O)(=O)c3ccccc3)cccc2C1=O | 5
C[C@H]1CN([C@@H](C)CO)C(=O)c2cccc(NC(=O)c3ccncc3)c2O[C@H]1CN(C)C(=O)Nc1ccc(F)cc1 | 10

Compound activity deposited in PubChem by Broad Institute.

Some of the compounds tested; count on the stated rates, not on these rows.
